Sa ugtP lethal: kills S. aureus RN4220 lacking UgtP | S. aureus RN4220 ugtP deletion, OD600 growth, 16 h; some inactives read as strong as hits | growth inhibition, % (concentration not given with the values) | 330,000 compounds, 0.54% hits | AID 1259309;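 active means z-score under -3 and OD600 up to 0.15 on both plates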;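 further: plate controls were untreated wells for no effect and antibiotic for full effect; wells of about 80 µL received 100 nL stock; the first replicate is given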
Mtb hypoxia inh: reduces hypoxia-regulated biosensor signal in M. tuberculosis; AID 1159583; fluorescence inhibition, % (test concentration not listed); M. tuberculosis hypoxia-regulated fluorescent reporter, fluorescence; 300,000 compounds, 0.1% hits;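 active means 35 to 45% if threefold the growth effect, above 45% if 1.5-fold the growth effect; inactive means the rest, general growth blockers included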;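 further: wells of about 50 µL received 100 nL stock; 0% = vehicle wells and 100% = reference inhibitor wells; whole bacteria with a GFP reporter of the hypoxia response; strong numbers were not always called active; many hits fall short of the cut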
BJeLR viability: kills HRASV12-expressing BJeLR cells; inhibition, % (concentration not given with the values); AID 1554; BJeLR (HRASV12) viability, CellTiter-Glo ATP luminescence, 48 h; reference of the scale not given here; 300,000 compounds, 0.17% hits;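 active means replicate mean above 50%; inconclusive means above 50% but judged a plate artefact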;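 further: 50 nL library stock added to about 25 µL; numbers are from one replicate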
Autofluor counter: compound fluorescence in toxin protease inhibitor counterscreen | compound autofluorescence counterscreen, microsphere flow cytometry; hits give high values | 360,000 compounds, 3.1% hits | AID 624483 | fluorescence intensity (no concentration beside the values);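 active means at least 3 SD above the mean of all compounds, about 16000 in these data; inconclusive means too few beads counted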;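 further: 100 nL of 1 mM stock went into each well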
RN4220 kill: kills Staphylococcus aureus RN4220. inhibition, % (test concentration not listed). AID 1259311. 330,000 compounds, 0.33% hits. S. aureus RN4220 growth, OD600, 16 h;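 active means z-score of -3 or lower and OD600 up to 0.18 on both plates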;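 further: plate controls were untreated cells for no effect and reference antibiotic for full effect; stock transfer was 100 nL into about 80 µL; one replicate is shown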
PrP UTR inh: inhibition of PrP 5' UTR reporter expression; 340,000 compounds, 0.35% hits; AID 488862; inhibition, % (test concentration not listed); cell-based PrP 5' UTR mRNA reporter, plate reader;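 active means every replicate at 50% or more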;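 further: 0 = median of the neutral control wells; tested in H4 reporter cells; numbers are from one replicate; inactives centre near -14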
Mtb hypoxia inh growth: also measured in Mtb hypoxia inh; calls as there; growth inhibition, %; measured here: M. tuberculosis growth (absorbance);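 0% = vehicle and 100% = reference antibiotic; read after six days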
Numbers without * were called inactive; u = inconclusive; x = no result given; & = joins results of further samples. No enrichment for hits. Share with any hit: about 4%.

SMILES	Sa ugtP lethal	Mtb hypoxia inh	Mtb hypoxia inh growth	BJeLR viability	Autofluor counter	RN4220 kill	PrP UTR inh
CC(=O)Nc1ccc(NC(=O)C2C3CCC(C3)C2C(=O)O)cc1 (centres undefined)	4	-1	0	3	3941	-0.8	-27
Cn1c(SCc2nc3ccccc3s2)nnc1-c1ccc2c(c1)OCO2	5	3	5	-5	9537	0.4	-49
COc1ccc(C2CCCN2C(=S)Nc2cccc(C)c2C)cc1OC (centres undefined)	-4	-4	8	-10	3284	2.5	-8
CC(C)Nc1ncnc2c1cnn2Cc1ccccc1Cl	13	11	-2	4	2858	-0.4	-4
O=C(Cn1cnc2c(NCc3ccccc3)ncnc21)NCc1ccccn1	2	1	2	x	4031	-0.6	-15
CSc1ccc(S(=O)(=O)NCCSc2ccccn2)cc1	14	8	8	3	6285	3.0	-6
O=C(CN(c1ccc(Cl)cc1)S(=O)(=O)c1ccc(Cl)c([N+](=O)[O-])c1)NCCc1ccc(F)cc1	4	1	5	5	2456	1.8	6
c1ccc2nc(N3CCNCC3)ccc2c1	2	4	4	x	5783&4437	5.5	-6&-11
O=C(NN=Cc1ccc([N+](=O)[O-])cc1)C(=O)N1CCCC1	3	-3	13	x	x	-2.4	x
O=C(Nc1nnc(-c2ccco2)o1)C1CC1	-6	2	8	3	3323	1.2	2
COc1ccc(OC)c(CCNC(=O)Cn2ccc3cc(S(=O)(=O)N4CCCC4)ccc32)c1	4	4	-6	-5	4239	3.3	-17
C=CCN1CC[C@]23c4c5ccc(O)c4OC2C(O)C=CC3[C@H]1C5 (some centres undefined)	1	x	x	x	6272	0.6	9
COCCCNc1ncnc2nc[nH]c12	6	-1	7	-2	4966	-2.0	-33
O=C(c1ccc(F)cc1F)N1CCCC(c2nc(-c3cccs3)no2)C1 (centres undefined)	0	-4	0	-6	2872	5.0	-3
CN(N)N=Nc1nc2c([nH]1)c(=O)n(C)c(=O)n2C	7	-3	-3	-3	5997	5.0	-16
Cc1ccc(Oc2ncccc2C(=O)NC2CCSC2=O)cc1 (centres undefined)	-6	2	4	0	3861	2.5	-9
Cn1c(=NC(=O)C2CCCCC2)sc2cc([N+](=O)[O-])ccc21	7	7	3	-6	4288	8.5	-31
CCCCOc1ccc(/C=C/C(=O)OCC(=O)NC2CCS(=O)(=O)C2)cc1OCC (centres undefined)	92*	8	6	-5	u	14	-12
O=[N+]([O-])c1cccc(C(=S)N2CCCC2)c1	3	11	-3	2	3234	5.5	-13
Cc1c(C(=O)N(C)Cc2nc3ccccc3c(=O)[nH]2)oc2ccccc12	-2	2	2	x	4068	3.0	-27
Cc1ccc(S(=O)(=O)Nc2cc(C)cn(Cc3ccccc3)c2=O)cc1	2	1	2	-14	4054	1.4	-27
O=C(C=Cc1cccc(F)c1)Nc1nccs1	-1	15	7	x	x	7.0	x
COC(=O)c1ccc(NC(=O)c2ccccc2CC[N+](=O)[O-])cc1	16	10	-1	11	3238	4.9	-20
CSCCC(NS(=O)(=O)c1ccccc1F)C(=O)NC(C)c1ccccc1 (centres undefined)	3	2	-1	-4	3244	1.2	-15
COc1cccc(NS(=O)(=O)c2ccc(OC)c(OC)c2)c1	-3	9	4	-4	11806	11	-35
Cc1c(NC(=O)c2cnn3c(C(F)(F)F)cc(-c4ccco4)nc23)c(=O)n(-c2ccccc2)n1C	1	x	x	4	2743	-2.2	-8
COc1cccc(OC)c1C(=O)Nc1cccc(-c2ccc3nncn3n2)c1	3	10	3	-2	4251	2.7	-5
COc1ccc2c(c1)SC(=CC(=O)c1ccncc1)N2C	-2	11	7	x	x	11	x
CC(C)C(OC(=O)CN1C(=O)COc2ccccc21)C(=O)NC1CCCCC1 (centres undefined)	3	-8	9	-11	5498	1.9	-16
CCCOC(=O)C(=O)NNc1ccccc1	-2	-13	-13	3	2228	-0.6	34
O=C(NNC1CC(=O)N(c2ccc(Br)cc2)C1=O)c1ccccn1 (centres undefined)	6	6	13	-2	2814	0.5	-8
COC(=O)c1c(C(=O)OC)c(-c2ccccc2)n2c1CS(=O)(=O)C2	8	x	x	2	2308	6.6	-37
Cc1cc(Oc2ccccc2)nc(-c2ccccc2)n1	33	5	12	2	11295	1.4	-8
NS(=O)(=O)c1ccc(NCc2ccccc2OCc2ccccc2F)cc1	-3	8	11	10	4249	11	-16
CC(Oc1ccc2ccc(=O)oc2c1)C(=O)NC(Cc1c[nH]c2ccc(O)cc12)C(=O)O (centres undefined)	-6	x	x	-4	4906	4.4	-2
O=C(CSc1ncn[nH]1)Nc1ccc(Cl)c(Cl)c1	-3	6	0	9	3924	6.2	-17
Cc1cc(Cl)nc(Cl)c1C(=O)N1CCOCC1	9	2	2	-6	3292	2.2	-14
CCN(C(=O)COc1ccc(C)nc1[N+](=O)[O-])C1CCS(=O)(=O)C1 (centres undefined)	10	3	5	-10	2630	2.1	3
COc1cc(C(=O)NC(C)CCc2ccccc2)cc(OC)c1OC (centres undefined)	4	10	4	-19	3255	1.9	-1
CC1=CC(C)C(c2ccccc2)OC1=O (centres undefined)	-8	-4	3	x	x	5.1	x
CC(NC(=O)CNC(=O)c1cccs1)c1cccc(C(F)(F)F)c1 (centres undefined)	0	2	0	x	6312	1.5	-11
Cc1ccccc1C(=O)N1CCN(c2ccc([N+](=O)[O-])c(NCc3cccnc3)c2)CC1	2	3	1	15	2538	0.7	-19
O=C(COc1coc(CN2CCN(c3ccccc3F)CC2)cc1=O)NC1CCCCC1	8	4	4	-2	u	4.2	-15
CCOc1cc(S(=O)(=O)N2CCN=C2Cc2ccccc2)ccc1F	7	-3	-8	6	4263	2.4	-7
COc1ccc(-c2nn(-c3ccccc3)cc2C(=O)N(C)CC(=O)Nc2ccccc2Br)cc1	7	4	-3	x	4316	0.4	-9
CC(=O)c1ccc(N2CCN(C(=S)NCc3ccco3)CC2)cc1	9	13	9	18	4456	5.7	-13
O=C(c1ccc2c3c(cccc13)CC2)C1CCCN(C(=O)c2ccc(=O)[nH]c2)C1 (centres undefined)	2	11	5	1	4339	5.1	-9
CSc1ncc(CN2CCCC(C(=O)Nc3ccc(-c4ccco4)cc3)C2)cn1 (centres undefined)	3	1	-3	3	5152	3.5	-20
S=c1[nH]nc(COc2ccccc2)n1-c1ccccc1	4	8	8	-5	2436	1.8	-11
COc1ccc2oc(C(=O)NN3C(C)CCCC3C)c(C)c2c1 (centres undefined)	3	-3	3	-15	4035	4.9	-18
CC1CCN(C(C(=O)NC2CCCCC2)c2cc3c(cc2[N+](=O)[O-])OCO3)CC1 (centres undefined)	-2	6	0	11	7912	3.0	-15
Cc1cc(C(F)(F)F)nc(SCC(=O)Nc2cc(C)on2)n1	x	x	x	7	9873	x	-77
COc1ccc(NS(=O)(=O)c2ccc3c(c2)N(C(C)=O)CCO3)cc1	4	1	-10	-2	5851	3.0	-21
COc1ccc(CC(C)=NNC(=O)c2cn(C)c3ccccc23)cc1OC	11	1	7	x	x	6.6	x
CCOC1(c2ccccc2)CC1C(=O)N/N=C/c1cccc([N+](=O)[O-])c1 (centres undefined)	x	x	x	1	5809	x	-18
CCCCCOC(=O)C1=C(C)N(C)C(=O)NC1c1cc(Br)c(O)c(OC)c1 (centres undefined)	21	x	x	-5	5144	1.9	-17
Cc1cc(-n2c(C)cc(C(=O)CSc3nnc4sc5ccccc5n34)c2C)no1	3	0	-5	-4	12580	2.6	-14
CCSc1nc(=S)n(CC)c(C)c1C(C)=O	2	6	7	3	19403*	3.7	-10
CN1CCN(C(=O)CCCN2C(=O)/C(=C/c3cccc(Br)c3)SC2=S)CC1	-4	-1	-2	90*	4444	-0.9	-23
COc1ccc(C(=O)OCC(=O)Nc2sccc2C(N)=O)cc1OC	4	11	8	-7	4670	5.4	-25

Exported with values under each structure: entries from further up
Values run as follows: Sa ugtP lethal	Mtb hypoxia inh	Mtb hypoxia inh growth	BJeLR viability	Autofluor counter	RN4220 kill	PrP UTR inh
- O=C(c1ccc2c3c(cccc13)CC2)C1CCCN(C(=O)c2ccc(=O)[nH]c2)C1 (centres undefined)
→ 2	11	5	1	4339	5.1	-9
- CSc1ncc(CN2CCCC(C(=O)Nc3ccc(-c4ccco4)cc3)C2)cn1 (centres undefined)
→ 3	1	-3	3	5152	3.5	-20
- S=c1[nH]nc(COc2ccccc2)n1-c1ccccc1
→ 4	8	8	-5	2436	1.8	-11
- COc1ccc2oc(C(=O)NN3C(C)CCCC3C)c(C)c2c1 (centres undefined)
→ 3	-3	3	-15	4035	4.9	-18
- CC1CCN(C(C(=O)NC2CCCCC2)c2cc3c(cc2[N+](=O)[O-])OCO3)CC1 (centres undefined)
→ -2	6	0	11	7912	3.0	-15
- Cc1cc(C(F)(F)F)nc(SCC(=O)Nc2cc(C)on2)n1
→ x	x	x	7	9873	x	-77
- COc1ccc(NS(=O)(=O)c2ccc3c(c2)N(C(C)=O)CCO3)cc1
→ 4	1	-10	-2	5851	3.0	-21
- COc1ccc(CC(C)=NNC(=O)c2cn(C)c3ccccc23)cc1OC
→ 11	1	7	x	x	6.6	x
- CCOC1(c2ccccc2)CC1C(=O)N/N=C/c1cccc([N+](=O)[O-])c1 (centres undefined)
→ x	x	x	1	5809	x	-18
- CCCCCOC(=O)C1=C(C)N(C)C(=O)NC1c1cc(Br)c(O)c(OC)c1 (centres undefined)
→ 21	x	x	-5	5144	1.9	-17
- Cc1cc(-n2c(C)cc(C(=O)CSc3nnc4sc5ccccc5n34)c2C)no1
→ 3	0	-5	-4	12580	2.6	-14
- CCSc1nc(=S)n(CC)c(C)c1C(C)=O
→ 2	6	7	3	19403*	3.7	-10
- CN1CCN(C(=O)CCCN2C(=O)/C(=C/c3cccc(Br)c3)SC2=S)CC1
→ -4	-1	-2	90*	4444	-0.9	-23
- COc1ccc(C(=O)OCC(=O)Nc2sccc2C(N)=O)cc1OC
→ 4	11	8	-7	4670	5.4	-25

The list goes on.
SMILES	Sa ugtP lethal	Mtb hypoxia inh	Mtb hypoxia inh growth	BJeLR viability	Autofluor counter	RN4220 kill	PrP UTR inh
C/C(N)=C(/C#N)C(=O)CSc1nc2scc(-c3ccc(F)cc3)c2c(=O)n1C	-13	-3	-2	-2	3226	3.6	-11
O=C(Nc1ccc(Br)cc1)c1ccc(N2C(=O)C3CC=CCC3C2=O)cc1 (centres undefined)	1	6	0	-9	2465	3.4	-38
O=C(Nc1nc2ccc([N+](=O)[O-])cc2s1)c1ccc(S(=O)(=O)N2CCCc3ccccc32)cc1	41	6	-5	26	4506	20	-20
COc1ccc(S(=O)(=O)N2CCCCC2)cc1NC(=O)c1ccco1	6	-3	8	6	6059	6.2	-10
COC(=O)c1c(NC(C)=O)sc(Cc2ccccc2)c1C	7	-3	-3	-5	3382	6.4	11
CC1CCCN(C(=O)CNC(=O)c2sc3ccccc3c2Cl)C1 (centres undefined)	-4	3	3	x	6223	6.1	-76
CCn1nnc(NC(=O)Cc2ccc(Cl)cc2)n1	8	14	8	4	4364	6.3	-17
CN1C(=O)SC(Nc2ccccc2C(=O)O)C1=O (centres undefined)	0	9	11	-6	4532	3.4	-27
O=C(O)C(Cc1ccccc1)N1CCS(=O)(=O)CC1 (centres undefined)	-4	4	10	1	4607	4.8	-29
CC/C(=N/Nc1cccc(Cl)c1)c1cnnc(SC)n1	x	x	x	-2	2033	x	11
Cc1nc(SCC(=O)c2c(N)n(C3CC3)c(=O)[nH]c2=O)[nH]c(=O)c1CCO	5	3	-5	x	8468	-0.7	-23
O=C(/C=C/c1cccc(Oc2ccccc2)c1)N1CCOCC1	-3	9	14	3	3130	6.3	-40
CCc1cc2c(NC(Cc3ccccc3)C(=O)O)nc(C)nc2s1 (centres undefined)	10	3	-7	0	3108	0.6	-24
CCOC(=O)c1oc2c(c1C)C(=NO)CCC2	7	19	11	x	x	0.9	x
COc1ccc(C(=O)N(C(C)C)C(C)C)c(OC)c1	6	x	x	-2	2911	2.9	-5

Screens (PubChem BioAssay)
